Screening data: PubChem BioAssay, PCMD
Calb biofilm kill – mixtures killing C. albicans biofilm | C. albicans biofilm persisters + clotrimazole, fluorescence viability; primary screen in compound mixtures of four per well | inhibition, % at 7.6 µM | 0.02% of 120,000 active | AID 1242;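 active = inhibition above 30.3% in the primary screen of four-compound pools, then above 30% when the compound was retested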;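 note: compounds exposed to preformed 24 h biofilms for 48 h; the number belongs to the whole pool; some results filed as inactive read as strong as hits; inactives centre near 12; 0% = biofilm with clotrimazole alone and 100% = kill control; retested singly at about 60 µM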
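Assay system: C. albicans biofilms / Medium: RPMI/MOPS medium, pH 7.0 / Schedule: biofilm formation 24 h, compound exposure 48 h, 37 °C / Measured by: Alamar Blue fluorescence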
Numbers without * were called inactive. The list is partial; count on the stated rates, not on these rows.

SMILES | Calb biofilm kill
COC(=O)C/C=C/[C@@H](C)[C@@H](/C=N/O[C@H](C)c1cn([C@@H]2COC[C@H]2O)nn1)NS(=O)(=O)c1ccc(C)cc1 | 23
CN(C(=O)COC(=O)CNC(=O)c1ccc(Cl)cc1Cl)c1ccccc1 | 7
O=C(OC1CCCCC1=O)c1ccc(S(=O)(=O)Nc2ccccc2)cc1 (stereo unspecified) | 11
CC(C)N1CCC(=NNc2ccc(S(=O)(=O)N3CCOCC3)cc2[N+](=O)[O-])CC1 | 4
Cc1[nH][nH]c(=O)c1C(c1ccc2c(c1)OCO2)c1c(C)[nH][nH]c1=O | 10
CCOC(=O)c1ccc(-c2ccc(/C=N/NC(=O)CN(c3cccc(C)c3)S(C)(=O)=O)o2)cc1 | -1
CCN(CC)S(=O)(=O)c1ccc(C(=O)NCCc2ccccn2)cc1 | 20
CCN(CC)C(=O)CSc1nc2ccsc2c(=O)n1CCCC(=O)NCCc1ccc(S(N)(=O)=O)cc1 | 9
CCCCCCCCOC(=O)c1nc(Cl)c(Cl)c(N)c1Cl | 13
CCO[C@H]1OC(C(=O)N2CCCCCCC2)=C[C@@H](c2coc3ccccc3c2=O)[C@@H]1CCCO | 16
N/C(=N\OC(=O)Cc1ccccc1)c1ccc([N+](=O)[O-])cc1 | 13
CCC(C(=O)OCC(=O)Nc1cc(C)ccc1OC)c1ccccc1 (stereo unspecified) | 15
Cc1cc(Cl)cc(Cl)c1OCCOCCN(C)C | 10
Nc1cc(N)nc(CS)n1 | 19
CCC(CO)Nc1nc(CN2CCCCC2)nc2scc(-c3ccccc3)c12 (stereo unspecified) | 17
COCCn1c(=N)c(C(=O)NCc2ccco2)cc2c(=O)n3cc(C)ccc3nc21 | -38
Cc1ccnc(NC(=O)CCC(=O)N(CC(=O)NC2CCCCC2)Cc2ccccc2)c1 | -1
COc1ccccc1/C=C/C=N/NC(=O)CN1CCN(Cc2ccccc2)CC1 | 2
Cc1ccc(C2=C(CC(=O)O)C(=O)CC2)cc1 | 14
CNC(=S)N/N=C/c1cccc(OCc2ccccc2F)c1 | 6
COc1ccc(NC(=O)Nc2ccc(C(C)C)cc2)cc1 | 15
COc1c(/C=N/NC(N)=S)c(C)nn1-c1ccccc1 | 14
c1ccc(COc2ccccc2CNC23CC4CC(CC(C4)C2)C3)cc1 | 20
CC(C(=O)Nc1ccc([N+](=O)[O-])cc1)N1CCN(C/C=C/c2ccccc2)CC1 (stereo unspecified) | 8
O=c1c(C=NCc2cccnc2)c(C(F)(F)F)[nH]n1-c1nc2ccccc2s1 | 9
Oc1cccc(CCC2CCCCN2Cc2cn[nH]c2-c2ccc3c(c2)OCO3)c1 (stereo unspecified) | 8
CCOc1cc(/C=N/NC(=O)CSc2cccc3cccnc23)ccc1O | 1
C[C@@H](C(=O)Nc1nc2ccccc2s1)N1C(=O)C2CC=CCC2C1=O (stereo partly specified) | 7
O=C(NCCc1ccc(F)cc1)c1cc(=O)c2ccccc2o1 | 18
COc1cc(C(F)(F)F)nc(-c2ccccn2)n1 | 13
CC1(C)CC(C(=O)NCCC(c2ccccc2)c2ccco2)CCO1 (stereo unspecified) | 26
CNc1cnn(-c2ccc(C)cc2)c(=O)c1Sc1ccc(C)cc1 | 15
COc1ccc(CCNC(=O)C2CC(=O)N(c3ccc(Br)cc3)C2)cc1OC (stereo unspecified) | 2
COc1ccc(OC)c(-c2c(=O)n(OCc3ccccc3Br)c3ccccc3[n+]2[O-])c1 | 15
COc1nc(OC)nc(N2CCC(NC(=O)C(Cc3cccc(OC)c3OC)NC(C)=O)CC2)n1 (stereo unspecified) | 16
COc1cccc(-n2nnc3c(=O)n(Cc4cccc(F)c4)cnc32)c1 | 10
CN(C)CC(=O)c1c(N)n(Cc2ccccc2)c(=O)n(C)c1=O | 3
O=C(CCS(=O)(=O)c1ccccc1)Nc1ccccc1N1CCOCC1 | 21
O=C(Nc1ccc(C(=O)N2CCCC2)cc1)Nc1ccc(Cl)cc1Cl | 15
c1ccc(Cc2nnc3sc(C4COc5ccccc5O4)nn23)cc1 (stereo unspecified) | 14
Cc1ccsc1/C=N/NC(=O)Nc1ccccc1 | 11
CCN(CC)CCOC(=O)c1ccccc1Br | 16
CCOC(=O)C1=NN(C(=O)c2ccccc2)C(O)(c2ccc(C)cc2)C1 (stereo unspecified) | 10
Cc1c(C(=O)Nc2ccccc2[N+](=O)[O-])csc1-c1ccccc1 | 10
Cc1cccc(OCCCC(=O)Nc2ccc(N(C)C)cc2)c1 | -10
Cc1ccccc1N1CCN(S(=O)(=O)c2ccccc2)CC1 | 2
COc1ccc(-n2c(SCC(=O)NCCCN3CCCC3=O)nnc2C(C)N2CCCCC2)cc1 (stereo unspecified) | -1
CCOC(=O)C(C(=O)OCC)C1OC(=O)c2cc3c(cc21)C(=O)OC3C(C(=O)OCC)C(=O)OCC (stereo unspecified) | 9
Cn1nnc(NCc2cc(Br)ccc2OCc2ccccc2F)n1 | 7
Cc1ccnc(SCC(=O)c2ccc(Br)cc2)c1C#N | 24
CC1CCCCN1C(=O)Cn1c(=O)n(-c2ccc(F)cc2)c(=O)c2sccc21 (stereo unspecified) | 13
Cc1cccc(-n2c(O)c(/C=N/NC(=O)c3ccccc3Cl)c3ccccc3c2=O)n1 | 4
CC1Cc2ccccc2N1C(=O)COC(=O)c1c2c(nc3ccccc13)CCCCC2 (stereo unspecified) | 5
C=C(C)CN1CCN(S(=O)(=O)c2ccc(C)c(N(C)S(=O)(=O)c3ccc(C)cc3)c2C)CC1 | 14
Cn1c(N)c(C(=O)COC(=O)C2CC(O)CN2S(=O)(=O)c2ccc(Cl)cc2)c(=O)n(C)c1=O (stereo unspecified) | 16
CN(C(=O)/C=C/c1ccc([N+](=O)[O-])s1)c1ccccc1 | 35
O=C(NC1CCCCC1)C(c1ccc(F)cc1)N(CCc1ccccc1)C(=O)CN1C(=O)c2ccccc2S1(=O)=O (stereo unspecified) | 2
CC(=O)c1ccc(C(=O)N(CCN(C)C)c2nc3c(Cl)cccc3s2)cc1 | 18
Nn1c(SCc2cccc(Cl)c2)nnc1-c1ccncc1 | 19
N#Cc1cccc(OCC(=O)NC(=O)NCc2ccccc2)c1 | 16
Other compounds:
SMILES | Calb biofilm kill
COC(=O)c1c(C)oc(C)c1S(=O)(=O)Nc1ccccc1 | 22
CN(C)c1ccc(C(=O)NC2(N3CCC3=O)CCCC2)cc1 | -5
O=C(CN(C1CCCCC1)S(=O)(=O)c1ccc(F)cc1)Nc1ccc2c(c1)OCO2 | 14
C=CCc1cccc(C=Nc2cccn3cc(-c4ccccc4)nc23)c1O | 22
CN=C1C=C/C(=N/N=c2\ccn(O)cc2C)C=C1C | 21
COc1ccc(N2CCC(CNC(=S)Nc3cccc(C)c3)C2)cc1 (stereo unspecified) | 23
Cc1ccccc1-n1c(-c2csc3ccccc23)n[nH]c1=S | 15
CCc1ccccc1NC(=O)CSc1n[nH]c(C)c1[N+](=O)[O-] | 16
O=C(O)c1nn(CCSc2ccccc2F)c(=O)c2ccccc12 | 8
N/C(Cn1cncn1)=N\NC(=O)C(=O)Nc1cccc(C(F)(F)F)c1 | 19
CC(C)C(=O)NS(=O)(=O)c1ccc(NS(C)(=O)=O)cc1 | 27
CC(=O)Nc1cccc(NC(=O)CSc2nn3c(=O)c(C)nnc3s2)c1 | 4
S=C(NCc1ccc2c(c1)OCO2)NCc1ccco1 | 4
O=C(O)c1cccc(-n2cccc2/C=C2\SC(=O)N(Cc3ccccc3F)C2=O)c1 | 12
CN=C(c1ccc(C)cc1)n1c(=S)nc(-c2ccc(C)cc2)n(C)c1=S | 2
CN(C(=O)CC1C(=O)NCCN1Cc1ccc(F)c(F)c1)C1CCOCC1 (stereo unspecified) | 0
CCNC(=S)N1CCCC(c2nc3ccc(C)cc3[nH]2)C1 (stereo unspecified) | 24
CC#CC[N+](C)(C)CCCCCCCCCC | 7
O=C(NCc1ccccn1)c1cc(-c2ccc(Br)cc2)nc2ccccc12 | 15
CCOc1cc(C)c(Cl)cc1S(=O)(=O)NC1CC(C)(C)NC(C)(C)C1 | 13
CCN1C(=O)C(CC(=O)Nc2ccc(OC)cc2)N(CCc2ccccc2F)C1=S (stereo unspecified) | 18
CCCCC(=O)O[C@]1(C(=O)CO)CC[C@H]2[C@@H]3CCC4=CC(=O)CC[C@]4(C)[C@H]3[C@@H](O)C[C@@]21C | 10
O=C(NC1CCCCC1)N1CCCC1 | 8
CC1CCC(NC(=O)c2ccc(S(C)(=O)=O)cc2)CC1 (stereo unspecified) | 8

Some of these compounds in order of length of the SMILES, ascending:
SMILES | Calb biofilm kill
O=C(NC1CCCCC1)N1CCCC1 | 8
CC#CC[N+](C)(C)CCCCCCCCCC | 7
S=C(NCc1ccc2c(c1)OCO2)NCc1ccco1 | 4
CC1CCC(NC(=O)c2ccc(S(C)(=O)=O)cc2)CC1 (stereo unspecified) | 8
O=C(O)c1nn(CCSc2ccccc2F)c(=O)c2ccccc12 | 8
COc1ccc(N2CCC(CNC(=S)Nc3cccc(C)c3)C2)cc1 (stereo unspecified) | 23
CC(C)C(=O)NS(=O)(=O)c1ccc(NS(C)(=O)=O)cc1 | 27
CCc1ccccc1NC(=O)CSc1n[nH]c(C)c1[N+](=O)[O-] | 16
O=C(NCc1ccccn1)c1cc(-c2ccc(Br)cc2)nc2ccccc12 | 15
CC(=O)Nc1cccc(NC(=O)CSc2nn3c(=O)c(C)nnc3s2)c1 | 4
N/C(Cn1cncn1)=N\NC(=O)C(=O)Nc1cccc(C(F)(F)F)c1 | 19
CN=C(c1ccc(C)cc1)n1c(=S)nc(-c2ccc(C)cc2)n(C)c1=S | 2
CCN1C(=O)C(CC(=O)Nc2ccc(OC)cc2)N(CCc2ccccc2F)C1=S (stereo unspecified) | 18
O=C(O)c1cccc(-n2cccc2/C=C2\SC(=O)N(Cc3ccccc3F)C2=O)c1 | 12
CCCCC(=O)O[C@]1(C(=O)CO)CC[C@H]2[C@@H]3CCC4=CC(=O)CC[C@]4(C)[C@H]3[C@@H](O)C[C@@]21C | 10

Next part
SMILES | Calb biofilm kill
Cc1cc2ncn(CCC(=O)NC(C)(C)C)c2cc1C | 7
CCOc1ccc2c(c1)[N+](C)(C)C(C)(C)C=C2C | 8
CN1CCC(=NNC(=O)C(=O)Nc2cccc(Br)c2)CC1 | 15
CCCCNC(=O)CSc1nnc(-c2ccc(S(=O)(=O)N3CCCC3)cc2)n1C | 4
O=c1c(=Nc2ccccc2O)c(=O)c2ccccc12 | 7
CC1CN(Cc2ccccc2)c2ccccc2NC1=S (stereo unspecified) | 13
CCN(/C=N/S(=O)(=O)c1ccc(Cl)cc1)CC | 9
Cc1ccc(C)c(C(C)NC(=O)c2ccccc2Br)c1 (stereo unspecified) | 12
COC(=O)c1ccc2nc(NC(=O)C3CCCCC3)sc2c1 | -1
Cc1cc(Br)ccc1OCC(=O)NNC(=O)c1cnccn1 | 8
C=C(C)C(=O)Nc1cccc(C2=NOC3(C2)C[C@@H](C(N)=O)N(C(=O)C2(C)CC2)C3)c1 (stereo partly specified) | 14
Cc1ccc(S(=O)(=O)N2CCN(C(=O)C3CCN(C(=O)c4ccccc4C)CC3)CC2)cc1C | -14
C/C(=N\NC(=O)C(O)(c1ccccc1)c1ccccc1)c1ccc(C)o1 | -12
CN1C/C(=C/c2ccsc2)C(=O)/C(=C/c2ccsc2)C1 | 16
COc1ccc2c(c1)-c1nc(/N=C/c3cccc(OC)c3O)sc1CC2 | 13
COc1ccc(/C=C/C(=O)Nc2cccc(N3CCOCC3)c2)cc1OC | 21
COc1cc(C(=O)Nc2cccc(-c3nnc(-c4ccco4)o3)c2)ccc1OC(C)=O | -8
Cn1c(=O)c([N+](=O)[O-])c(NCCCn2ccnc2)c2ccccc21 | 9
O=C(NCc1ccco1)C(c1ccco1)N(Cc1cccs1)C(=O)Cn1nnc2ccccc21 (stereo unspecified) | 2
CCOc1ccc(N2C(=O)C3C(C2=O)C3(c2ccccc2)c2ccccc2)cc1 (stereo unspecified) | 12
CC1(C)CC(CCN)(Cc2ccccc2Cl)CCO1 (stereo unspecified) | 29
Cn1c(N)c(C(=O)COC(=O)c2cc(C3CC3)nc3ccccc23)c(=O)n(Cc2ccccc2)c1=O | 6
CC1CCc2sc(C(=O)N/N=C/c3ccc(O)cc3)cc2C1 (stereo unspecified) | 16
CC(OC(=O)C1CC1)C(=O)Nc1ccc([N+](=O)[O-])cc1Cl (stereo unspecified) | 14
CCOc1nc(-c2ccccc2Cl)nc2ccccc12 | 30
CC1CN(C(=O)COC(=O)c2ccc(Cl)nc2)CC(C)O1 (stereo unspecified) | 17
CC1(C)CC(CCNC(=O)CCl)(c2ccccc2)CCO1 (stereo unspecified) | 17
Cn1c(CNC(=O)OC(C)(C)C)nnc1SCC(=O)N1CCOCC1 | 35
O=[N+]([O-])c1cccc(S(=O)(=O)c2ccc(N3CCCCC3)c([N+](=O)[O-])c2)c1 | 2
CCC(C)NC(=O)c1ccc(N2CCC3(CC2)OCCO3)c([N+](=O)[O-])c1 (stereo unspecified) | 17
Cn1c(SCC(=O)Nc2sccc2C(N)=O)nnc1-c1ccncc1 | 11
O=C(NNS(=O)(=O)c1ccccc1C(F)(F)F)c1cccc(S(=O)(=O)Nc2ccccc2Cl)c1 | 5
O=C(CN1CCN(c2ccc(O)cc2)CC1)NC1CCCc2ccccc21 (stereo unspecified) | 7
N/C(COc1ncn(-c2ccccc2)n1)=N\S(=O)(=O)c1ccccc1 | 17
